Sfp inh – Sfp phosphopantetheinyl transferase inhibition. Biochemical Sfp PPTase activity, qHTS. Potency, µM, for the others: max response, negative = inhibition, actives largely listed as inhibitors. 310,000 compounds, 3.5% hits. AID 1490; active = well fitted inhibition curve with a large enough effect; inconclusive = small, poorly fitted or top-dose-only effect, or another doubt; inactive = no such curve, though single readings can be large or run the other way;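 note: the enzyme is Sfp with the accession as filed and its product quenches rhodamine fluorescence; potency is the fitted concentration of half-maximal effect; 0% = enzyme reaction without inhibitor and -100% = no enzyme wells; top concentration of the series not given in the record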
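Compounds were incubated with enzyme (final 15 nM) for 15 min at room temperature before substrate addition started the reaction. Fluorescence at 525 nm excitation, 598 nm emission was recorded immediately and after 30 minutes.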
TRPV1 potentiator – human TRPV1 potentiation. TRPV1-expressing cells, Fluo-8 calcium influx, capsaicin EC20 potentiation; host cell line not named in the record; control for the full effect not named in the record. potentiation, % at 8.33 µM. 320,000 compounds, 0.02% hits. AID 540277; active means potentiation above 80%; inconclusive means 30% to 80%; inactive means below 30%; note: 0% is about no effect
Target sequence (Q8NER1 whole entry, looked up): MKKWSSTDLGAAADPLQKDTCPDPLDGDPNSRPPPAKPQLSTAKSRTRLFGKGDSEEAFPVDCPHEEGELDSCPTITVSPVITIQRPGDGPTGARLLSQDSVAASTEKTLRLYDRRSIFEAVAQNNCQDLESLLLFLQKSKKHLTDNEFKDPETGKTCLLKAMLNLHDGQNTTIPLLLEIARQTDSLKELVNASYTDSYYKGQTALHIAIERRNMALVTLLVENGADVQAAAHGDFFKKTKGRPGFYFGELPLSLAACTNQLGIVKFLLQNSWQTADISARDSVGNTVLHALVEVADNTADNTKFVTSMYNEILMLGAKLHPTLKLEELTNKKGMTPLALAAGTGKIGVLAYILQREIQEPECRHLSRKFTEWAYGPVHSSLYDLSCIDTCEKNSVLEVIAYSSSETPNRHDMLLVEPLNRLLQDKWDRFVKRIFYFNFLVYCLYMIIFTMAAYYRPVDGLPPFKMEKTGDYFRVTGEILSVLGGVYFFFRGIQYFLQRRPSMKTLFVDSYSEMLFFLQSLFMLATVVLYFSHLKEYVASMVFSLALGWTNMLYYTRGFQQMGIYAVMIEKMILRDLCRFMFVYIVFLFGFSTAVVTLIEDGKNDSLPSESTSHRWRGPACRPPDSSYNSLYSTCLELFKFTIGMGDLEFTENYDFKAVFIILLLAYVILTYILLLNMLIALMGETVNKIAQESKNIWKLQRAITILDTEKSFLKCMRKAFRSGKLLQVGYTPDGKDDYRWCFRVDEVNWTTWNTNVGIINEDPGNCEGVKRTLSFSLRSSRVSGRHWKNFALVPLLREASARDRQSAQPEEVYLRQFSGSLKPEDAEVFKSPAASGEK
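Fluo-8 calcium influx in TRPV1-expressing cells, kinetic read (ex 480/em 520 nm). Compound added and read 3 min for agonist activity, followed by capsaicin at EC20 final and 2 min further read for enhancement.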
D2 PAM – positive allosteric modulators of human D2 dopamine receptor | P14416 | DiscoveRx D2 beta-arrestin cells, luminescence, 90 min; 100% = 57 uM dopamine signal | potentiation, % (no concentration beside the values) | 360,000 compounds, 0.23% hits | AID 624464; active = potentiation of 50% or more; inconclusive = 30% to 50%; inactive = 30% or less;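 note: compound concentration not given in the record; tested on top of an EC20 dose of dopamine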
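PathHunter D2 cells, attached overnight at 37 deg C, received compound in DMSO plus dopamine at EC20 (50 nM final) for 90 min at 37 deg C. Beta-arrestin recruitment was read as luminescence after 1 h with detection reagent at ambient temperature.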
Menin MLL FP FL – displaces fluorescein MLL peptide from human menin; FP activity change, % at 61.4 µM; 290,000 tested, under 10 active; Fluorescence polarization, fluorescein-MLL peptide displacement from menin; inconclusive = falling polarisation curve, or a change in total fluorescence; inactive = total fluorescence flat and polarisation flat or rising; no compound was filed as active; the % refers to the polarisation; negative = inhibition;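 note: % of control where 0% means no effect; inhibitors lower the polarisation; unlabelled MLL peptide was the positive control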
gsp antag – gsp mutant antagonism. gsp-mutant cells, cAMP HTRF, 30 min; control for the full effect not named in the record. Potency, µM (top dose mostly 76.9 µM), for the others: top-dose activity change, negative = inhibition, most hits filed as inhibitors. 340,000 compounds, 0.4% hits; active = falling curve of any shape with a large fitted effect; inconclusive = falling curve, mostly with a smaller effect; inactive = flat or rising curve; cell line not stated here;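 note: intracellular cAMP measured with PDE inhibitor Ro 20-1724 present during compound exposure; potency is the fitted concentration of half-maximal effect; % is set by controls: 0 for no effect and ±100 for the full control effect; nearly all actives have a fitted effect of over 65% in size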
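G418-selected cells were plated in DMEM/10% FBS for 16-24 h at 37C, then treated with compounds plus the PDE inhibitor […] (300 uM solution added) for 30 min at 37C. Intracellular cAMP was measured by HTRF after 30 min lysis at room temperature.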
gsp agonist – gsp mutant agonism; gsp mutant cells, cAMP HTRF, 30 min; control for the full effect not named in the record; Potency, µM (top dose mostly 76.9 µM), for inactives: top-dose activation (cAMP increase), most hits filed as activators; 340,000 compounds, 0.13% hits; AID 624287; active = well fitted activation curve with a large enough effect; inconclusive = small, poorly fitted or top-dose-only effect, or another doubt; inactive = no such curve, though single readings can be large or run the other way; cell line not stated here;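 note: phosphodiesterase inhibitor Ro 20-1724 added with compounds to block cAMP breakdown; potency is the fitted concentration of half-maximal effect; nearly all actives have a fitted effect of over 60% in size; about a fifth of the inactives were tested at one dose only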
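Cells stably selected in G418 were plated at 2000/well, grown 16-24 hr, then given compounds in DMSO with the PDE inhibitor […] (300 uM solution added) for 30 min at 37C; cAMP was read by HTRF.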
ClpP mod – qHTS Assay for Activators of ClpP; ATP-dependent Clp protease proteolytic subunit (Bacillus subtilis (strain 168)), P80244; 340,000 compounds, 1.9% hits; purified B. subtilis ClpP, FRET peptide cleavage, 20 min; Potency, µM (series often up to 57.5 µM), for inactives: at the top dose activity change, negative = active; active = well fitted falling curve with a large enough effect; inconclusive = small, poorly fitted or top-dose-only effect; inactive = no such curve, though single readings can be large or run the other way; note: potency is the fitted concentration of half-maximal effect; the source files actives as falling curves though it sought activators and does not explain the sign; nearly all actives have a fitted effect of over 65% in size; many hits overshoot -100%
Target sequence (P80244 whole entry, looked up): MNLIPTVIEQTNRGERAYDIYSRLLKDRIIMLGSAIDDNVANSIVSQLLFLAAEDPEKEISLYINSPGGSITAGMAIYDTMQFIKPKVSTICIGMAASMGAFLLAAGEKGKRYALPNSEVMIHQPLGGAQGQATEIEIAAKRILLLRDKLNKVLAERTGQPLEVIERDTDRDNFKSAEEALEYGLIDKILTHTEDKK
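Buffer: 100 mM Tris/HCl pH8, 100 mM KCl, 0.05% low protease BSA, 2.5% glycerol, 0.01% Tween-20. ClpP 10 microg/mL final; 20 min RT; delta FRET normalized to ADEP and DMSO controls.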
* marks the source's active call; other numbers are inactive results; ? = inconclusive; / = no result given; [ ] = another dose, or the depositor's remark.

Values in the order – Sfp inh	TRPV1 potentiator	D2 PAM	Menin MLL FP FL	gsp antag	gsp agonist	ClpP mod
NC(=O)[C@H]1CC2(CC(c3cccc(NC(=O)CC(c4ccccc4)c4ccccc4)c3)=NO2)CN1C(=O)CC(c1ccccc1)c1ccccc1 (stereo partly specified)
→ 14%	-10	-7	11	1%	/	-9.8%
O=C(COC(=O)c1cc([N+](=O)[O-])ccc1N1CCOCC1)Nc1cc(F)ccc1F
→ /	-13	-2	/	3%	16%[15.4 µM]	/
O=C(COC(=O)c1ccccn1)c1cccc(Br)c1
→ -5%	-7	-28	14	2%	-31%[inhibitor]	-1.4%
Cc1ccc(Cl)cc1Nc1nc(N2CCOCC2)nc(N2CCOCC2)n1
→ 13%	-16	-6	3.4	-18%	?	-0.1%
COc1ccc2oc(C(=O)OCC(=O)/C(C#N)=C(\C)N)c(C)c2c1
→ 11%	-25	-9	5.9	-4%	27%	3.7%
COC(=O)[C@H](CCSC)NC(=O)Nc1cc(OC)cc(OC)c1
→ 10%	15	-3	-2.4	1%	-3%	/
CN(C)C(=O)NCc1ccc(S(N)(=O)=O)cc1
→ -5%	?	-7	4.1	13%	23%	-2.1%
Cc1ccc(S(=O)(=O)Nc2ccc3ncccc3c2[N+](=O)[O-])cc1
→ /	/	-4	/	-4%	-4%	1.0%
O=C(CN(c1ccc2c(c1)OCCO2)S(=O)(=O)c1ccccc1)NCc1ccc(Cl)cc1
→ 10%	6	-21	6.8	-8%	-1%	?
O=C(Nc1cccc(-c2cnc3ccccc3n2)c1)c1cccc(NC(=O)c2ccco2)c1
→ ?	-4	-4	9.1	3%	-2%	-3.4%
COc1cc(NC(=O)c2cccs2)ccc1NC(=O)c1ccco1
→ 18%	-40	6	4.6	-22%	-2%	80%
Cc1nn(C(C)(C)C)c(OC(=O)c2ccco2)c1Sc1ccccc1
→ 9%	-1	7	18	4%	-23%	-3.1%
C=CCn1c(=O)n2ncnc2c2c3c(sc21)CCCC3
→ 7%	6	-8	-2.8	9%	35%	1.0%
CCN1CCCC(OC(=O)c2cc(-c3ccc(C)cc3)nc3ccccc23)C1 (stereo unspecified)
→ 4%	-5	-11	-5.1	4%	-28%[15.4 µM]	/
COC(=O)CC1=C(C(=O)OC)C(c2ccc3c(c2Cl)OCO3)C(C#N)=C(N)O1 (stereo unspecified)
→ -9%	-25	-9	9.0	-26%	17%	0.0%
CCCCn1c(=N)n(CC(=O)c2ccc(OC)cc2)c2ccccc21
→ -20%	-4	/	1.3	/	/	/
O=C(Cn1c(NCCO)nc2ccccc21)c1ccccc1
→ 3%	1	-10	-1.4	-23%	14%	0.6%
COCCNC(=O)C(C#N)c1nc2ccccc2nc1N1CCCCCC1 (stereo unspecified)
→ -11%	-12	-7	?	-33%	-46%	?
Cc1cc(/C=C2\C(=N)N3N=CSC3=NC2=O)c(C)n1Cc1ccccc1
→ 16%	-18	-2	1.3	-9%	-1%[15.4 µM]	/
COc1ccc(CCn2c(=N)c(C(=O)NCC3CCCO3)cc3c(=O)n4cccc(C)c4nc32)cc1 (stereo unspecified)
→ 9%	5	8	0.4	5%	?	-17%

Only D2 PAM, gsp antag and Sfp inh, for some of the entries so far:
| structure | D2 PAM | gsp antag | Sfp inh |
| --- | --- | --- | --- |
| CCCCn1c(=N)n(CC(=O)c2ccc(OC)cc2)c2ccccc21 | / | / | -20% |
| COc1cc(NC(=O)c2cccs2)ccc1NC(=O)c1ccco1 | 6 | -22% | 18% |

Other compounds
Values in the order – Sfp inh	TRPV1 potentiator	D2 PAM	Menin MLL FP FL	gsp antag	gsp agonist	ClpP mod
CCN1CCN(C(=O)Nc2ccc(OC)cc2OC)CC1
→ -4%	9	-5	-1.0	9%	-39%[15.4 µM]	/
O=C(NNc1nc2c(F)cc(F)cc2s1)C1COc2ccccc2O1 (stereo unspecified)
→ 12%	7	-5	-0.1	4%	3%	1.4%
c1cn(CCCNc2ncnc3nc[nH]c23)cn1
→ 17%	-3	0	2.2	12%	7%	-0.2%
Cc1cc(C)c(C)c(OCC(=O)O/N=C(\N)c2cccnc2)c1
→ 5%	/	-11	0.2	8%	-28%	2.3%
CSc1ccccc1NC(=O)c1ccncc1
→ -17%	1	-15	3.5	4%	-9%	-2.2%
COc1ccc(NS(=O)(=O)c2cc(NC(=O)c3sccc3C)ccc2N2CCOCC2)cc1
→ 14%	-11	-20	5.1	-14%	-30%[inhibitor]	0.0%
CC(=O)c1ccc(NCC(=O)N2CCN(S(=O)(=O)c3ccccc3)CC2)cc1
→ /	-7	3	/	-14%	15%	-9.0%
CC(C)(C)c1cc(C(=O)NNC(=O)Nc2ccccc2)n(Cc2ccccc2)n1
→ 21%	-1	-2	3.9	1%	-40%[inhibitor]	0.9%
CCOC(=O)c1c(O)c2cccc3c2n(c1=O)CC3
→ -10%	-3	21	-2.0	-11%	12%[15.4 µM]	/
CCOc1cc(/C=C/c2cc(C(F)(F)F)[nH]c(=O)n2)ccc1O
→ -10%	-10	6	?	?	6%	/
O=C(/C=C/c1ccc2c(c1)OCO2)c1ccc[nH]1
→ -4%	-1	-7	3.3	7%	-16%[15.4 µM]	1.1%
CCS(=O)(=O)c1nc(S(=O)(=O)c2ccc(C)cc2)c(N2CCCC2)s1
→ -2%	-3	-11	/	16%	?	-2.3%
O=C(c1scc2c1CCCC2)N1CCCCC1
→ 13%	25	-10	3.1	-8%	-1%	-0.7%
CCOC(=O)C1CCCN(CCC(=O)Nc2ccccc2)C1 (stereo unspecified)
→ 22%	4	-42	0.1	2%	?	1.1%
O=P(OC1CCCCC1)(OC1CCCCC1)C(O)c1cccnc1 (stereo unspecified)
→ 0%	12	0	1.9	9%	-9%	/
COc1cccc(C2C(C(=O)Nc3ccc(C)cc3C)=C(C)Nc3ncnn32)c1OC (stereo unspecified)
→ 22%	-10	-11	3.5	-1%	1%	-2.2%
CCOC(=O)c1ccc(NC(=O)CSc2nc3c(c(=O)n2-c2ccccc2OC)SCC3)cc1
→ 9%	0	-4	1.5	-5%	-15%	-16%
COc1ccc(Cl)cc1N/C(N)=N/c1nc(C)cc(=O)[nH]1
→ -13%	1	10	1.5	6%	-23%	/
COc1ccc(C2(C)NC(=O)N(CC(=O)Nc3ccc(S(=O)(=O)N4CCCC4)cc3)C2=O)cc1 (stereo unspecified)
→ 7%	-1	8	-0.1	-2%	-9%[15.4 µM]	-2.6%
CCSC1=C(C#N)C2(CCCCC2)C2=C(CC(C)(C)CC2=O)N1
→ 12%	-10	0	-4.5	-15%	?	/
CCN(C[C@H]1N[C@@](Cc2ccccc2)(C(=O)OC)[C@H]2C(=O)N(C)C(=O)[C@@H]12)S(=O)(=O)c1ccc(-c2ccccc2)cc1
→ /	/	0	/	-13%	/	0.8%
Cc1ccc(OCc2ccc(C(=O)Nc3nccs3)o2)cc1
→ 12%	-2	-6	1.0	10%	-14%	14%
Cn1nnnc1SCC(=O)NC1CCCCC1
→ 2%	-2	-8	-0.7	-7%	-28%	-0.7%
O=C(c1cc([N+](=O)[O-])ccc1Cl)N1CCN(Cc2ccc3c(c2)OCO3)CC1
→ 26%	-1	1	-0.3	7%	-1%	/
CN(C)CCCSc1nc(-c2ccccc2)nc2c1CCC2
→ -2%	-5	-18	1.0	11%	-22%	2.6%
CCOC(=O)Cc1csc(NC(=O)C(NC(=O)C2CCC(C)CC2)C(C)C)n1 (stereo unspecified)
→ -1%	6	-8	-4.4	-1%	2%	1.5%
O=C(Nc1ccccc1Cl)c1ccc([N+](=O)[O-])o1
→ 12%	3	13	-1.4	5%	-35%[inhibitor]	/
Clc1cccc(Oc2ncccn2)c1
→ 9%	-7	-6	1.3	12%	-19%	/
CC(C(=O)Nc1ccc2c(c1)OCO2)N(C)CC(=O)Nc1ccc(Cl)cc1 (stereo unspecified)
→ /	/	-12	/	8%	1%	3.8%
O=C(O)C(c1ccccc1)C(c1ccccc1)c1ccccc1 (stereo unspecified)
→ 13%	26	-3	0.5	-6%	-13%	/
Cc1ccc(N2CC(C(=O)OCc3ccc([N+](=O)[O-])cc3)CC2=O)cc1 (stereo unspecified)
→ 4%	24	-2	1.6	-5%	?	-1.4%
CCOC(=O)c1cnc(/N=C/N(C)C)s1
→ -19%	-3	1	0.1	6%	11%[15.4 µM]	/
Cc1ccc(C)c(NC(=O)COC(=O)c2cccc(S(=O)(=O)N3CCCCC3)c2)c1
→ /	0	11	/	5%	-13%	1.5%
CC(O)C(NS(=O)(=O)c1ccc(Cl)cc1)C(=O)OCc1nnc(-c2ccccc2)o1 (stereo unspecified)
→ -10%	-10	7	2.4	-9%	-4%	-1.7%
COc1ccc(S(=O)(=O)N2CC3CCCN3c3cc(C(F)(F)F)ccc32)cc1 (stereo unspecified)
→ 18%	3	-23	1.5	-25%	0%	0.6%
CC(C)Cc1ccc(S(=O)(=O)N2CCCC2)cc1
→ 12%	-9	-13	-2.9	-3%	-8%	-0.2%
Cc1ccc(Cc2nnc(SCC(=O)Nc3ccccc3C)[nH]c2=O)cc1
→ /	14	13	/	0%	-10%	-0.4%
CCc1c(C)c2ccc(OC(C)C(=O)NC(Cc3c[nH]c4ccc(O)cc34)C(=O)O)c(C)c2oc1=O (stereo unspecified)
→ -7%	12	-23	4.8	-1%	/	4.8%
CC(C)C(OC(=O)c1cccs1)C(=O)NCc1cccs1 (stereo unspecified)
→ 9%	-4	-16	1.5	-1%	13%	-0.9%
NNC(=O)c1cc2c(s1)CCCCCC2
→ -8%	-21	5	?	1%	?	-1.2%
COc1ccc(C(=O)CSc2nc3ncccc3[nH]2)cc1OC
→ -20%	-3	-4	0.1	-16%	3%[15.4 µM]	/
Cn1c(=O)oc2cc(S(=O)(=O)N3CCCC(C(=O)Nc4nccs4)C3)ccc21 (stereo unspecified)
→ 19%	?	-4	-0.3	-5%	5%	-1.8%
Cc1nn(Cc2ccc([N+](=O)[O-])cc2)c(=O)n1-c1ccccc1Cl
→ 16%	5	-3	1.1	7%	7%[15.4 µM]	/
CSc1nncn1/N=C/c1ccccc1F
→ 29%	-15	3	3.0	4%	6%	2.5%
CC(NC(=O)COC(=O)c1cccc(S(=O)(=O)N2CCCC2)c1)c1ccccc1 (stereo unspecified)
→ /	/	-28	/	2%	15%[15.4 µM]	-2.7%
CC1CCN(C(=O)c2ccc(S(=O)(=O)Cc3cc(F)ccc3F)c([N+](=O)[O-])c2)CC1
→ 2%	-1	2	-0.5	-16%	-4%[15.4 µM]	1.6%
